Bioassay records from PubChem BioAssay.
VDR inh: blocks the human vitamin D receptor; P11473; VDR-SRC2-3 peptide fluorescence polarization, 2 h; Potency, µM, for the others: max response, negative = inhibition, hits mostly inhibitors; 0.93% of 400,000 active; AID 504847; active means well fitted inhibition curve with a large enough effect; inconclusive means small, poorly fitted or top-dose-only effect, or another doubt; inactive means no such curve, though single readings can be large or run the other way; further: series mostly up to about 120 µM
Target sequence (P11473 whole entry, looked up): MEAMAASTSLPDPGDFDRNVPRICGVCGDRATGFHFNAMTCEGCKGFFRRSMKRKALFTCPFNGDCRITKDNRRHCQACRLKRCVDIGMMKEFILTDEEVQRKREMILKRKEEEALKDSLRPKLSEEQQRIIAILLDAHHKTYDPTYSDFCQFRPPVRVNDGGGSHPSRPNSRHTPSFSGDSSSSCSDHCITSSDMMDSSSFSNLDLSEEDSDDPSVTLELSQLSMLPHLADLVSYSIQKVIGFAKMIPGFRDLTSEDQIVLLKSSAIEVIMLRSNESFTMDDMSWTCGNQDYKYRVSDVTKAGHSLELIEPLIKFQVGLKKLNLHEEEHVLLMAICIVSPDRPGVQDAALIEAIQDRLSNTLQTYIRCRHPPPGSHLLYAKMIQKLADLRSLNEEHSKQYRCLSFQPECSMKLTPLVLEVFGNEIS
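VDR–SRC2-3 interaction, FP format. Cmpds 23 nl via pintool, brief spin, 2 h ambient incubation.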
The depositor's hits bear a star; ? = inconclusive; & = joins results of further samples; [ ] = remark or other dose. On the % scale 0 is the no-effect control and ±100 the full control effect; potency means the concentration at half of the fitted maximal effect. These rows are one share of the data, so the mix of outcomes need not match the whole.

A first look, three compounds:
smiles | VDR inh
Cc1ccc([C@@H]2CC=C(C(=O)O)[C@H](c3ccc(C(C)(C)C)cc3)N2S(=O)(=O)c2ccc(C)cc2)cc1 | -6%
O=[N+]([O-])c1cccc(Oc2ncccc2[N+](=O)[O-])c1 | -9%
O=c1nc2scc(-c3ccccc3)n2c2ccccc12 | ?

The listing, previewed entries included:
smiles | VDR inh
Cc1ccc([C@@H]2CC=C(C(=O)O)[C@H](c3ccc(C(C)(C)C)cc3)N2S(=O)(=O)c2ccc(C)cc2)cc1 | -6%
O=[N+]([O-])c1cccc(Oc2ncccc2[N+](=O)[O-])c1 | -9%
O=c1nc2scc(-c3ccccc3)n2c2ccccc12 | ?
CCOc1ccc(N/C=C/C(=O)c2ccc3ccccc3c2)c([N+](=O)[O-])c1 | 0%
COc1cccc(CN(C)CC(=O)NC(=O)NCc2ccco2)c1 | -4%
COc1ccc(OCC(=O)N2CCN(C(=O)COc3ccccc3)CC2)cc1 | 0%
Cc1ccc(NC(=O)CSc2nncn3c2cc2sccc23)cc1F | 12%
O=C(Nc1ccc(O)c2c(=O)cc(-c3ccccc3Cl)oc12)c1ccc(Br)cc1 | -11%
CC(C)NC(=O)c1ccc(CNC(=O)OCC(F)(F)F)cc1 | -9%
CC1CCN(Cc2c(C(=O)N3CCc4ccccc4C3)nc3ccc(Cl)cn23)CC1 | 23%
Cc1cccc(C2Nc3ccccc3C(=O)N2CCc2ccccc2)n1 (stereo not drawn) | 0%
O=C(N=C1SC2CS(=O)(=O)CC2N1c1ccc(OC(F)(F)F)cc1)C1CC1 (stereo not drawn) | -11%

(next part)
smiles | VDR inh
COc1ccc(S(=O)(=O)Nc2cccc(-c3ccc(N4CCCCC4)nn3)c2)cc1F | 9%
COc1ccc(NC(=O)C(NC(=O)/C=C\c2ccc3c(c2)OCO3)c2ccc(OC)cc2)cc1 (stereo not drawn) | -13%
CC(=O)c1ccc(NC(=O)C(C)Sc2nnc(-c3ccncc3)n2C2CC2)cc1 (stereo not drawn) | -8%
CSCC(=O)NS(=O)(=O)c1ccc(C)cc1 | -15%
CC1CCCCN1C(=O)c1cccc(NC2=C(Cl)C(=O)N(Cc3ccccc3)C2=O)c1 (stereo not drawn) | -18%
COc1ccc(-c2noc(COc3ccc(Cl)c(C)c3)n2)cc1 | -18%
O=c1c2sc3ccccc3c2n(Cc2cccc(C(F)(F)F)c2)c(=O)n1Cc1ccccc1 | 3%
CCOc1cc(C=C2C(=O)c3ccccc3C2=O)ccc1OCC(=O)Nc1ccc(C)cc1 | -14%
COc1ccc(N2CCN(CC(O)COc3cc(C)cc(C)c3)CC2)cc1 (stereo not drawn) | 8%
COC(=O)c1c(NC(=O)CN2C(=O)NC3(CCC(C(C)(C)C)CC3)C2=O)sc2c1CCCCC2 (stereo not drawn) | ?
Cc1ccc(-c2cc(C(F)(F)F)n3ncc(C(=O)N4CCCCC4c4cccnc4)c3n2)cc1 (stereo not drawn) | -12%
CC1CCCC(C)N1C(=O)CSc1nnc(-c2c[nH]c3ccccc23)o1 (stereo not drawn) | -11%

Additional records follow:
smiles | VDR inh
COc1ccc(OCC(=O)Nc2ccc(-c3nc4cc(C)cc(C)c4o3)cc2)cc1 | -3%
COc1cccc(C(=O)Nc2cccc3ccccc23)c1OC | -1%
COc1cc(OC)cc(C(=O)Nc2ccc(-c3nc4ccccc4s3)cc2C)c1 | -1%
Cc1ccc(NC(=O)CSc2nccn2C)cc1S(=O)(=O)N1CCOCC1 | -4%
CCOc1cc(Br)c(C(=O)O)cc1OCC | -6%
COc1cccc(C(=O)Nc2cccc(C(C)=O)c2)c1 | 7%
CC(C)Cn1c(=O)c2c(nc3n2CCS3)n(C)c1=O | -11%
COc1ccc(/C=N/NC(=O)c2cc(Br)ccc2O)cc1Cn1cc(Cl)cn1 | -10%
CN1CCOC1c1ccc(C2OCCN2C)cc1 (stereo not drawn) | -8%
CCNc1nc(NC(C)(C)C)nc(N2CCCCC2)n1 | -2%
Cc1noc(/C=C/c2cccnc2)c1[N+](=O)[O-] | ?
COc1cc(C(=O)OCC(=O)NC(=O)NCc2ccccc2)ccc1OC(F)F | ?

Looked up one by one from above:
smiles | VDR inh
COc1cc(C(=O)OCC(=O)NC(=O)NCc2ccccc2)ccc1OC(F)F | ?
COc1cccc(C(=O)Nc2cccc(C(C)=O)c2)c1 | 7%
Cc1ccc(NC(=O)CSc2nccn2C)cc1S(=O)(=O)N1CCOCC1 | -4%

Other records.
smiles | VDR inh
Cc1nnc(NC(=O)C2CCN(S(=O)(=O)c3cc([N+](=O)[O-])ccc3Cl)CC2)o1 | 3%
Cc1ccc(NC(=O)CSc2ncc3c(n2)-c2ccc(Cl)cc2N(C)S3(=O)=O)cc1F | 9%
CCOC(=O)[C@H]1[C@H]2COc3ccccc3[C@@H]2N2C(=O)c3cc(F)c(F)cc3NC(=O)[C@@]12C | -11%
CCOc1ccccc1N(C)C(=O)c1cc(S(=O)(=O)NCCc2ccc(Cl)cc2)ccc1F | 9%
O=[N+]([O-])c1ccc(N2CCOCC2)cc1NC(c1ccccc1)c1ccccc1 | 12%
COc1ccc(OC)c(NC(=O)Cc2c(C(=O)O)n(C)c3ccccc23)c1 | -2%
CCN(CC)c1ccc(/C=N/n2nnnc2N)c(O)c1 | -3%
COc1ccc(NC(=O)CCn2cccc2)cc1 | 11%
Cc1ccc(C(=O)c2coc3cc([N+](=O)[O-])c(O)c([N+](=O)[O-])c23)cc1 | -19%
COc1ccccc1C(=O)N(Cc1ccc(C)o1)C1CCS(=O)(=O)C1 (stereo not drawn) | -19%
Cc1cc(N2CCN(C)CC2)nc2ccc(NC(=O)Nc3ccc(F)cc3)cc12 | 14%
Cc1cc(C(F)F)n2nc(C(=O)Nc3cccnc3Cl)nc2n1 | 7%

Carrying on:
smiles | VDR inh
Cc1ccc(-n2cc(CN3CCC(O)(c4ccccn4)CC3)c(-c3ccc(F)cc3)n2)cc1 | 18%
O=[N+]([O-])c1ccc(N2CCCC2)nc1N1CCCC1 | 3%
CCN1CCN(c2cc(C)c3cc(NC(=O)c4cccc(Cl)c4)ccc3n2)CC1 | -2%
Cn1c(=S)c2[nH]c(SCCN)nc2n(C)c1=O | -21%
O=C(CN(C1CCCCC1)S(=O)(=O)c1ccc(Cl)cc1)NCc1ccncc1 | -15%
O=C(Nc1cc(Cl)ccc1N1CCOCC1)c1cccnc1 | 2%
O=C(c1ccc2c(c1)N(Cc1ccc(Cl)cc1)C(=O)c1ccccc1S2(=O)=O)N1CCC(Cc2ccccc2)CC1 | -28%
COC(=O)C1=C(C)N=C2SC(C)C(=O)N2C1c1cccc(F)c1 (stereo not drawn) | -1%
O=C1CCCc2oc3c(c21)CCCC3 | 1%
Cc1oc(-c2cccc(Cl)c2)nc1CN1CCCC(C(=O)NCc2ccc(Cl)cc2)C1 (stereo not drawn) | -12%
CCc1nnc(NC(=O)C2CCCN2S(=O)(=O)c2ccc(F)cc2)s1 (stereo not drawn) | 13%
CCOC(=O)c1ccc(CC(=O)c2oc3cc(O)ccc3c2C)o1 | -2%

(cont.)
smiles | VDR inh
Cc1cc([N+](=O)[O-])nn1CC(=O)N/N=C/c1ccc(O)cc1O | -7%
CCCNC(=O)CSc1nc(COc2ccccc2)nc2ccccc12 | 0%
COc1ccc2cc(CCNS(=O)(=O)c3ccc(C)cc3)c(=O)[nH]c2c1 | -21%
O=C1NCCN(Cc2cccc(Oc3ccccc3)c2)C1CC(=O)N1CCCCC1 (stereo not drawn) | -4%
CCOc1cc2[nH]c(=O)n(CCCCC(=O)N3CCN(c4ccccc4OC)CC3)c(=O)c2cc1OCC | 3%
CCOc1ccc(NC(=O)Cn2nnc(C(=O)NCCc3ccc(OC)c(OC)c3)c2N)cc1 | 1%
O=C(Nn1c(-c2ccccc2)nc2ccccc2c1=O)c1ccco1 | 1%
CC(CC(=O)Nc1cc(C(F)(F)F)ccc1Cl)c1ccccc1 (stereo not drawn) | -3%
OCC1(CO)CCCC(CO)(CO)C1O | 13%
Cc1ccccc1C(=O)O/N=C(\N)c1ccncc1 | 5%
CC1=NN(C(=O)c2csc(C)c2)C(O)(C(F)(F)F)C1 (stereo not drawn) | -13%
CN(C)CCN(C(=O)/C=C/c1cccs1)c1nc2c(F)cc(F)cc2s1 | 13%

Continuation.
smiles | VDR inh
Clc1nc(Cl)nc(NCCC2=CCCCC2)n1 | 0%
Cc1ccc(S(=O)(=O)N2CCC(C(=O)Nc3ccccc3N3CCCC3)CC2)cc1C | -9%
CC(=O)N1CC2(C)CN(C(C)=O)CC(C)(C1)C2O (stereo not drawn) | -19%
Oc1c(C(c2cccs2)N2CCN(c3cccc(Cl)c3)CC2)sc2ncnn12 (stereo not drawn) | 13%
CCN(CC)CCCNc1oc(/C=C/c2ccccc2)nc1C#N | -13%
CC(=O)Oc1ccc(-c2csc(Nc3cccc(C)n3)n2)cc1 | 0%
C=CCc1cc(Cl)ccc1OCCCNC(C)CC (stereo not drawn) | -10%
O=C(NC(Cc1ccccc1)C(=O)N1CCCC1C(=O)O)c1ccccc1 (stereo not drawn) | -4%
Cn1cc(CN2CCN(c3cnccn3)CC2)c(-c2cccc(Cl)c2)n1 | 14%
Cn1c(=O)n(CCc2ccccc2)c(=O)c2c1nc1n2CCCN1c1ccccc1 | -1%
CCN(CC)CCNC(=O)Cn1cnc2sc(C)c(S(=O)(=O)N3CC(C)CC(C)C3)c2c1=O (stereo not drawn) | 6%
c1ccc2c(OCCCN3CCCCCC3)cccc2c1 | -8%

The list goes on.
smiles | VDR inh
CC1CN(C(=O)c2cccs2)CCN1C(=O)c1cccs1 (stereo not drawn) | 3%
COc1ccccc1CNC(=O)CCNS(=O)(=O)/C=C/c1ccc(C)cc1 | -5%
Cc1ccnc(N/C=C(\C#N)c2nc(-c3cccc(Br)c3)cs2)c1 | 37%[activator]
O=C(/C=C/c1ccc(N2CCC(c3ccccc3)=N2)cc1)c1ccccc1 | ?
CC(C)N(C(=O)COC(=O)[C@H](C)NC(N)=O)c1ccccc1 | -10%
O=C(NCC(c1ccco1)N1CCCCC1)c1cccc(S(=O)(=O)Nc2ccc(F)cc2)c1 (stereo not drawn) | -8%
O=C1C(Cl)=C(NCCc2ccccc2)C(=O)c2ccccc21 | 18µM*
CC(C)C(C(=O)NCC1CCCO1)N(Cc1ccco1)C(=O)CNS(=O)(=O)c1ccccc1 (stereo not drawn) | -3%
Cc1ccc(C)c(NC(=O)C2CCCN(S(=O)(=O)c3ccc4[nH]c(=O)ccc4c3)C2)c1 (stereo not drawn) | -13%&-3%
COc1ccc(/C=C/C(=O)c2ccc(O)cc2)cc1CN1CCOCC1 | ?
N#Cc1ccc(CSc2ccc(S(=O)(=O)N3CCCCCC3)cn2)cc1 | -19%
Cn1nccc1NS(=O)(=O)c1ccc(F)cc1 | -2%

Two of these compounds in a different format.
Compound: CC(C)N(C(=O)COC(=O)[C@H](C)NC(N)=O)c1ccccc1
  VDR inh: -10%
Compound: O=C(NCC(c1ccco1)N1CCCCC1)c1cccc(S(=O)(=O)Nc2ccc(F)cc2)c1 (stereo not drawn)
  VDR inh: -8%

Following part.
smiles | VDR inh
CCCN(CCC)c1cc(C)nc2nc(-c3ccc(C(C)(C)C)cc3)nn12 | -8%
COc1cccc(-n2nc(C(=O)O)c3ccccc3c2=O)c1 | -1%
CCCCOc1ccc(C(=O)NCC(=O)OCC(=O)N2CCN(S(=O)(=O)c3ccc(C)cc3C)CC2)cc1 | 0%
CC(=O)Nc1cccc(C(=O)OCC(=O)NCc2ccc(F)cc2)c1 | -2%
COc1ccc(/C=C/C(=O)NC(C)CCc2ccccc2)cc1OC (stereo not drawn) | -7%
COc1ccc(CNC(=O)C2CCN(C(=O)Cc3ccccc3)CC2)cc1 | -8%
CC(C)(C)c1ccc(O)c(O)c1 | 13%
CC(NC(=O)c1ccc2c(c1)C(=O)N(Cc1cccnc1)C2=O)c1ccccc1 (stereo not drawn) | -11%
COc1ccccc1CNC(=O)CS(=O)Cc1nc(-c2ccccc2C)oc1C (stereo not drawn) | -14%
Cc1ccc2nc(C)c(C(=O)N/N=C/c3ccc(N4CCOCC4)cc3)cc2c1 | 3%
COc1cccc(-c2nc(-c3ccc4c(c3)NC(=O)CO4)cs2)c1 | -9%
FC(F)(F)c1ccccc1-c1nccc(NCc2ccccc2)n1 | ?

Additional compounds:
smiles | VDR inh
COc1ccc(NC(=O)c2nnn(CC(=O)Nc3ccc(C)c(C)c3)c2N)cc1OC | -1%
Cc1ccccc1NC(=O)N1C2CCCC1CC(NC(=O)C(C)(C)C)C2 (stereo not drawn) | -4%
Cc1n[nH]c(C)c1S(=O)(=O)N1CCC(C(=O)O)CC1 | 12%
CCN(CC)/[N+]([O-])=N/Oc1cc(O/N=[N+](\[O-])N(C)C)c([N+](=O)[O-])cc1[N+](=O)[O-] | ?
COc1ccc(NC(=O)CN(C)CC(=O)N(C)C2(C#N)CCC(C)CC2)cc1 (stereo not drawn) | -12%
CCOC(=O)c1c(C)[nH]c(C(=O)OC)c1CCC(=O)OC | -2%
COc1ccc(C(=O)Nc2cc(Cl)ccc2-n2cncn2)c(OC)c1OC | 1%
COc1ccc(NC(=S)NC2CCCCC2)c(OC)c1 | ?
Cc1c(C(=O)O)oc2ccc(S(=O)(=O)N3CCCC3)cc12 | 1%
Cc1ccc(S(=O)(=O)Nc2ccc(C(=O)N3CCCC3)cc2)c(C)c1NS(C)(=O)=O | 27%
O=C(Nc1nc2cc3c(cc2s1)OCCO3)c1ccncc1 | ?
CC(C)CCNC(=O)C(=O)NCCC1=CCCCC1 | -11%
CCN1C(=C2C(=O)c3ccccc3C2=O)C=Cc2ccccc21 | 0%
